CtBP-E1A inh = blocks the CtBP interaction with E1A | AID 651724 | actives 0.49% (n = 340,000) | AlphaScreen GST-E1A/His-CtBP binding, 1536-well; active compounds read low; control for the full effect not named in the record | activity change, % (concentration not given with the values); in the data active means activity change below about -65%; inconclusive means about -30% to -65%; inactive means above about -30%; also: % is scaled to controls: 0 for no effect and ±100 for the full control effect
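Homogeneous bead-based format: GST-tagged E1A captured on glutathione donor beads, His-tagged CtBP on nickel acceptor beads; compounds precede bead addition by 2 h at 37 °C.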
TRPML1 ag = agonists of human TRPML1 channel. Q9GZU1. actives 0.12% (n = 410,000). AID 624414. activation, % (test concentration not listed). TRPML1-expressing cells, Ca2+ dye fluorescence, FDSS; host cell line not named in the record; reference of the full effect not given here; in the data active = activation above about 50%; inconclusive = about 30% to 50%; inactive = below about 30%; also: 0% is about no effect; the text of the record puts the active cut at 80%
Target sequence (Q9GZU1 whole entry, looked up): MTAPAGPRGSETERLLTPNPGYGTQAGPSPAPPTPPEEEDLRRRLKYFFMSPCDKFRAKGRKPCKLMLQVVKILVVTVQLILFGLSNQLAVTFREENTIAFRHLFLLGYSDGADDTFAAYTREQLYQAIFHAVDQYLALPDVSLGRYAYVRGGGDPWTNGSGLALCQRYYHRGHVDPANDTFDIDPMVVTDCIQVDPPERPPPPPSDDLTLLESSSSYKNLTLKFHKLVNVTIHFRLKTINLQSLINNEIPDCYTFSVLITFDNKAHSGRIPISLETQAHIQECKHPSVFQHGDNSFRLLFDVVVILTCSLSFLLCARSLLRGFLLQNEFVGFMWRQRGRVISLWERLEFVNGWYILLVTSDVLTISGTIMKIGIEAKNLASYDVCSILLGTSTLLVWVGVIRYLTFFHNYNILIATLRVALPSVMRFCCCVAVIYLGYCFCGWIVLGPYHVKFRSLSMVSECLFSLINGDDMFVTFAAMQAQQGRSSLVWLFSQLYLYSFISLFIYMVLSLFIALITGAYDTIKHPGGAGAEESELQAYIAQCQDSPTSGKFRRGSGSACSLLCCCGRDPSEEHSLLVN
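Tetracycline-induced TRPML1-DL cells are seeded and incubated overnight before loading with a no-wash Ca2+ dye and quencher. Agonist activity is taken from the 110 s fluorescence read following compound pin-transfer on an FDSS, before EC80 54-4 challenge.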
D2 ag = agonists of human D2 dopamine receptor (beta-arrestin); actives 0.084% (n = 360,000); activation, % (concentration not given with the values); P14416; DiscoveRx PathHunter D2 beta-arrestin, luminescence, 90 min; 100% = 57 uM dopamine signal; in the data active = activation above about 40%; inconclusive = about 15% to 40%; inactive = below about 15%; also: compound concentration not given in the record; the text of the record calls up to 30% inactive
Target sequence (P14416 whole entry, looked up): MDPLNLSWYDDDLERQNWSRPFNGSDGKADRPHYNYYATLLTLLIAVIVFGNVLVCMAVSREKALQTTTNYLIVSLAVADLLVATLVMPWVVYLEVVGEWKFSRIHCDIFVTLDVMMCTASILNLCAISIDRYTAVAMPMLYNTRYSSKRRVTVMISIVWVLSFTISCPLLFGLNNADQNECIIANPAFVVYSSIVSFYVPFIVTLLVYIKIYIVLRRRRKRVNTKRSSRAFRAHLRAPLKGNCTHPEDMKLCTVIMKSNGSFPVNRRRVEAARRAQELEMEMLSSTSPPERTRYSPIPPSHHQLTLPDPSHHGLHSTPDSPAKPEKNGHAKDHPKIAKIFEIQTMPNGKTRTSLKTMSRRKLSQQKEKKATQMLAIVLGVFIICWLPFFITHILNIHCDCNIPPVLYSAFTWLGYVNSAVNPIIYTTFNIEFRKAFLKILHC
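DiscoveRx PathHunter D2 beta-arrestin cells (2,100/well) attached overnight, then compound-stimulated 90 min at 37 C in HBSS/10 mM HEPES/0.1% Tween-20 buffer; beta-galactosidase complementation read by luminescence after 1 h at ambient temperature. Dopamine 57 uM final (EC100) as control.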
Six1-Eya2 blk = blocks human Six1 binding to Eya2 | Q15475+O00167 | AlphaScreen GST-Six1/His-Eya2 binding, biochemical; active compounds read low; control for the full effect not named in the record | activity change, % (concentration not given with the values) | actives 0.56% (n = 360,000); in the data active = activity change below about -65%; inconclusive = about -30% to -65%; inactive = above about -30%; also: % is scaled to controls: 0 for no effect and ±100 for the full control effect
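Six1/Eya2 binding was read as AlphaScreen signal after compounds were pinned into GST-Six1 plus His-tagged Eya2 (5X stock 250/500 nM) in pH 8.0 Tris/NaCl/TCEP buffer, beads added, then incubated 1 h, 37 C, dark.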
TRPML1 inh = blocks the human TRPML1 channel. activity change, negative = inhibition, % (concentration not given with the values). Q9GZU1. TRPML1-inducible cells, Ca2+ dye fluorescence, FDSS; active compounds read low; inhibition of EC80 agonist-evoked calcium signal. actives 0.02% (n = 390,000); in the data active means activity change below about -50%; inconclusive means about -30% to -50%; inactive means above about -30%;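 also: stimulus is agonist 54-4 at its EC80 concentration; % is scaled to controls: 0 for no effect and ±100 for the full control effect; the text of the record puts the active cut at -80%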
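TRPML1-DL cells, Tet-induced overnight (~16 h, 37 °C) at 1,500 cells/well, were loaded with Ca8 no-wash dye plus quencher for 45-90 min at room temperature. Compounds were pinned during FDSS kinetic reading; agonist 54-4 at EC80 (4 uM final) then added.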
PINK1 expr mod = modulators of PINK1 expression; Potency, µM (top dose mostly 76.6 µM), inactives show at the top dose activation (PINK1 increase), hits mostly activators; AID 624263; PINK1 immunofluorescence, high-content cytometry, 24 h; actives 0.2% (n = 410,000); active = well fitted activation curve with a large enough effect; inconclusive = small, poorly fitted or top-dose-only effect; inactive = flat fitted curve, though single readings scatter; cell line not stated here;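 also: potency is read from the fitted curve at half-maximal effect; % of control where 0% means no effect; nearly all actives have a fitted effect of over 65% in size; a mitochondrial uncoupler was the plate control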
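PINK1 protein level read as immunofluorescence by microplate cytometer in a fixed, stained stable cell line after 24 h exposure to five compound concentrations, with CCCP as control.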
* = called active by the depositor; u = inconclusive; x = no result given; [ ] = another dose, or the depositor's remark.

entry	Molecule	CtBP-E1A inh	TRPML1 ag	D2 ag	Six1-Eya2 blk	TRPML1 inh	PINK1 expr mod
1	CCOC(=O)c1[nH]c(=O)[nH]c1CNc1ccccc1C#N	4	-0.1	-3.2	-1	-12	-0.7%
2	c1ccc2c(c1)Cc1cc(CN3CCOCC3)ccc1-2	-3	0.6	0.3	-3	20	1.5%[38.3 µM]
3	CCOc1ccc(CCNC(=O)CN2C(=O)COc3ccc(S(=O)(=O)N4CCCCCC4)cc32)cc1	x	2.3	x	x	5	1.5%
4	CN(Cc1ccccc1)c1nc2c(c(=O)[nH]c(=O)n2C)n1CCCc1ccccc1	5	1.8	-3.4	-10	23	x
5	NS(=O)(=O)c1ccc(NC(=O)C2Cc3ccccc3CN2C(=O)c2ccco2)cc1 (configuration not stated)	-2	-0.3	0.7	-11	10	2.9%
6	COc1ccccc1OCCn1c(=O)n(C)c2ccccc21	-5	-0.2	-2.8	0	-5	2.0%
7	COC(=O)CN(c1c(C)cccc1C)S(C)(=O)=O	6	2.9	-0.5	2	0	8.5%[38.3 µM]
8	Cc1c(NC(=O)COC(=O)Cc2ccc(F)cc2)c(=O)n(-c2ccccc2)n1C	-2	-0.1	-2.6	8	-9	4.7%
9	O=Nc1c(O)n(Cc2c(Cl)cccc2Cl)c2ccccc12	-12	4.9	0.1	-22	-8	12%
10	CCOC(=O)C1=CN(Cc2cccc(-c3ccc4c(c3)OCO4)c2)S(=O)(=O)N(C)C1C (configuration not stated)	2	-0.4	4.9	-3	41	0.4%
11	CC(C)(C#N)NC(=O)C1CCCN1S(=O)(=O)c1ccc2ccccc2c1 (configuration not stated)	-11	0.0	-11	0	-8	4.3%
12	COc1ccc(C(=O)COC(=O)CCC(=O)Nc2ccc(C(C)=O)cc2)cc1	0	-0.1	-5.2	33	-9	1.7%
13	O=C(Cn1cnc2ccccc2c1=O)c1ccc(Br)cc1	-6	-0.4	-4.2	-10	7	0.4%
14	CN1/C(=C\C(=O)COC(=O)c2nccnc2N)C(C)(C)c2ccccc21	1	-0.3	-1.3	23	-15	-1.2%
15	COc1ccccc1NC(=O)c1cc2cc3ccc(OC)c(Cl)c3nc2s1	x	-0.6	x	x	6	1.7%
16	Cc1nn(-c2ccccc2)c2nc3c(cc12)C(=O)CCC3	-18	0.5	0.6	-12	9	0.8%
17	COc1cccc(NC(=O)CSCn2nnc3c(=O)[nH]c(Cc4ccc(F)cc4)nc32)c1	x	-0.6	x	x	-4	-0.7%
18	Cc1ccccc1NS(=O)(=O)c1ccc(C(=O)NCC2(N3CCOCC3)CCCCC2)cc1	x	-0.2	-0.6	-1	-2	-0.9%
19	Cc1csc(SCC(=O)O)n1	5	0.1	-9.2	7	8	-0.1%
20	CC1(c2ccccc2)CC(C)(C)N(C(=O)C2CCCO2)c2ccccc21 (configuration not stated)	0	0.4	-1.3	-4	14	x
21	CCN(CC)C(=O)CN(c1ccc2c(c1)OCO2)S(C)(=O)=O	7	0.6	0.1	5	-4	6.7%[38.3 µM]
22	CCOc1ccc(NC(=S)NC(=O)/C=C/c2ccc(C)cc2)c([N+](=O)[O-])c1	-20	1.4	-1.8	-7	-27	0.3%
23	O=C(O)c1ccc2c(=O)n(Cc3ccccc3)c(SCc3ccc([N+](=O)[O-])cc3)nc2c1	6	x	-9.2	1	x	-0.6%
24	CCOc1ccc(CCNC(=O)COC(=O)/C=C/c2ccccc2)cc1OCC	2	0.0	-1.4	-1	9	0.3%

Compound profiles, from the list above. Order of values: CtBP-E1A inh | TRPML1 ag | D2 ag | Six1-Eya2 blk | TRPML1 inh | PINK1 expr mod
Record of `COc1cccc(NC(=O)CSCn2nnc3c(=O)[nH]c(Cc4ccc(F)cc4)nc32)c1` : x | -0.6 | x | x | -4 | -0.7%
Record of `CC1(c2ccccc2)CC(C)(C)N(C(=O)C2CCCO2)c2ccccc21` (configuration not stated) : 0 | 0.4 | -1.3 | -4 | 14 | x
Record of `Cc1ccccc1NS(=O)(=O)c1ccc(C(=O)NCC2(N3CCOCC3)CCCCC2)cc1` : x | -0.2 | -0.6 | -1 | -2 | -0.9%
Record of `O=C(O)c1ccc2c(=O)n(Cc3ccccc3)c(SCc3ccc([N+](=O)[O-])cc3)nc2c1` : 6 | x | -9.2 | 1 | x | -0.6%
Record of `Cc1csc(SCC(=O)O)n1` : 5 | 0.1 | -9.2 | 7 | 8 | -0.1%

(more compounds)
entry	Molecule	CtBP-E1A inh	TRPML1 ag	D2 ag	Six1-Eya2 blk	TRPML1 inh	PINK1 expr mod
25	O=C(O)COc1ccccc1/C=N/NC(=O)c1cccc(S(=O)(=O)Nc2cccc(Cl)c2)c1	-71*	0.1	-2.9	u	-10	0.9%
26	CCN1CCN(c2ccc(S(=O)(=O)N3CCOCC3)cc2NC(=O)c2cc(F)c(F)c(F)c2F)CC1	8	0.3	-2.7	6	12	2.5%
27	O=c1oc(-c2cccs2)nc2ccc(Cl)cc12	x	-0.2	0.8	4	-15	-0.2%
28	O=C(NNS(=O)(=O)c1ccccc1C(F)(F)F)c1cc2ncc(C(F)(F)F)cc2s1	6	-1.1	-4.2	-14	-15	3.5%
29	CC(=O)NC(C)C12CC3CC(CC(CC(=O)O)(C3)C1)C2 (configuration not stated)	34	-0.3	-0.7	1	-8	10%[38.3 µM]
30	COC(=O)c1ccccc1NC(=O)c1nc2nc(C)cc(C(F)F)n2n1	2	1.9	-0.8	4	6	6.1%
31	Cc1ncsc1CCOC(=O)C12CC3CC(CC(C3)C1)C2	13	2.4	2.2	2	13	0.6%
32	COc1ccc(/C(O)=C2/C(=O)C(=O)N(CCCN3CCOCC3)C2c2ccc(N(C)C)cc2)cc1 (configuration not stated)	x	x	2.4	5	x	-1.3%
33	O=C1c2oc3ccccc3c(=O)c2C(c2cccc(Br)c2)N1Cc1ccco1 (configuration not stated)	2	1.9	-0.2	-1	-11	17%[38.3 µM]
34	Fc1ccc(F)c(NC(=S)NCCc2ccccc2)c1	14	-0.5	-2.8	19	-9	4.5%
35	COc1cc(NS(=O)(=O)c2ccc3c(c2)CCCN3C(C)=O)cc(OC)c1OC	x	2.4	x	x	-8	-0.1%
36	CC(C)Oc1ccc(CNC(=O)C2COc3ccccc3C2)cc1 (configuration not stated)	x	0.9	x	x	-2	0.3%
37	Cc1ccc(S(=O)(=O)N(C)CCCC(=O)Nc2ccc(F)cc2)cc1	-12	-0.3	0.9	9	28	0.0%
38	NC(=O)Cn1c(=O)n(CCc2ccccc2)c(=O)c2c3c(sc21)CCCC3	-12	0.6	-0.9	-2	1	-2.0%[38.3 µM]
39	O=S(=O)(NCc1nnc2ccccn12)c1ccc(Cl)cc1	4	1.3	-1.4	1	7	3.1%
40	CC(=O)N(CCCNC(=O)c1ccccc1)C(=O)c1ccccc1	-1	-0.5	-2.9	2	4	1.7%
41	COC(=O)c1ccc(C)c(NC(=O)Cn2c(C)csc2=O)c1	5	-0.7	-0.2	3	3	0.5%
42	O=C(c1ccc(CS(=O)Cc2ccc(Cl)cc2)o1)N1CCN(C2CCCCC2)CC1 (configuration not stated)	-14	0.0	-10	5	14	0.4%
43	O=C(CN1CCN(C(=O)c2ccccc2)CC1)Nc1ncc(Br)cc1Br	5	1.1	-2.4	11	-16	-0.1%
44	Cc1cccc(C)c1NC(=O)CN(C)C(C)C(=O)Nc1ccccc1-c1ccccc1 (configuration not stated)	-6	0.1	-0.8	0	-6	0.3%
45	COc1ccc(CCNC(=O)c2cc3cc(F)ccc3nc2C)cc1OC	5	0.4	4.5	7	-18	17%
46	Cn1cccc1Cc1nnc(SCC(=O)Nc2ccccc2F)n1CCc1ccccc1	-11	1.6	-4.3	-3	1	0.6%
47	COc1cccc(CNC(=O)CCC2CCCN(C(=O)c3cc(C)[nH]n3)C2)c1 (configuration not stated)	12	-0.1	-1.5	2	-5	-1.2%
48	O=C(CNCC1CCCCC1)Nc1cccc(S(=O)(=O)N2CCOCC2)c1	x	2.1	-0.2	-6	-1	0.4%

Copied from the list:
In D2 ag, entry 43 reads -2.4
In PINK1 expr mod, entry 42 reads 0.4%
In Six1-Eya2 blk, entry 41 reads 3

The results go on:
entry	Molecule	CtBP-E1A inh	TRPML1 ag	D2 ag	Six1-Eya2 blk	TRPML1 inh	PINK1 expr mod
49	Cc1ccc(Sc2ccc(C(=O)N(C)C)cc2[N+](=O)[O-])cc1	x	0.9	-3.0	-15	18	-1.1%
50	CCc1ccc(NC(=O)COn2nnc3ccc(S(=O)(=O)N(C)C)cc32)cc1	-1	-1.0	-1.8	0	-23	-4.4%
51	COc1ccc(S(=O)(=O)N2CCC(C(=O)Nc3ccc(Oc4ccccc4)cc3)CC2)cc1OC	x	-0.8	x	x	24	8.2%
52	O=C(Nc1ccc(Oc2cccc(C(F)(F)F)c2)nc1)c1cccs1	-5	1.4	u	5	-5	25%
53	CCN1CCN(C(CNC(=O)c2ccc3c(c2)OCO3)c2cccnc2)CC1 (configuration not stated)	2	0.2	-2.5	3	-10	-0.6%
54	CCN(CC)S(=O)(=O)c1ccc(N2CCCCS2(=O)=O)cc1	x	-0.4	x	x	5	0.2%
55	COc1cccc(-c2nc(CS(=O)CC(=O)N3CCN(c4cccc(C(F)(F)F)c4)CC3)c(C)o2)c1 (configuration not stated)	x	2.0	x	x	11	1.9%
56	CCC(CO)Oc1cc(NCc2ccc(Cl)cc2Cl)c2ncn(C(C)C)c2c1 (configuration not stated)	x	1.0	-1.9	-12	20	12%
57	CN(C)S(=O)(=O)c1cccc(-c2nnc3n2CCCCC3)c1	x	-0.2	-2.3	6	3	2.1%
58	CCOc1cc(C2CC(=O)Nc3cc(C)c(C)cc32)ccc1O (configuration not stated)	-11	0.4	0.3	0	-6	1.5%
59	Nc1cc(-c2ccccc2)nn1S(=O)(=O)c1ccc(F)cc1	4	-1.1	-4.7	-2	2	0.1%
60	COc1ccc2nc(NC(=O)CN(C)S(=O)(=O)c3cccs3)sc2c1	-5	-0.3	-0.7	-7	-15	-1.1%[38.3 µM]
61	COc1ccc(NC(=O)NNC(=O)c2ccc3ccccc3c2)cc1OC	-1	0.4	-0.2	1	5	-0.9%
62	O=C(NCCn1cc(SCc2ccccc2)c2ccccc21)c1ccccc1F	9	1.9	1.4	-4	34	3.2%
63	O=[N+]([O-])c1c(NCCO)cc(N2CCN(Cc3ccc4c(c3)OCO4)CC2)c2nonc12	-19	0.8	-2.6	1	-1	7.2%
64	Cn1c(=O)c2c(n(C)c1=O)=NC1(CCCCC1)N=2	-2	0.2	-1.2	9	-6	1.7%
65	O=C(O)c1ccc(COc2cccc(CO)c2)cc1	8	1.1	-0.1	6	-13	3.8%[38.3 µM]
66	CCOc1cc(/C=C(\C#N)C(=O)Nc2ccc(S(N)(=O)=O)cc2)ccc1OCCN1CCOCC1	-2	0.6	-2.8	-12	5	-0.1%
67	Cc1ccc(CN2C(=O)c3ccccc3C2c2nnnn2-c2ccc3c(c2)OCCO3)cc1 (configuration not stated)	4	0.0	x	1	x	4.3%
68	Cc1noc(C)c1COc1ccc(C(=O)Nc2nnc(CC(C)C)s2)cc1	5	4.2	1.5	5	7	5.1%
69	CC1(C)N=C(SCc2ccc(Cl)cc2)c2ccccc2N1	x	-1.0	x	x	9	7.7%
70	COc1cc(OC)c2c(c1)S(=O)(=O)C(c1ccccc1)=C2N	-22	0.0	-6.5	-1	-3	2.8%
